# Screening data as filed in PubChem.
# VACV Venus inh = vaccinia inhibition (Venus reporter). Vaccinia virus Venus reporter expression, fluorescence. actives 0.46% (n = 330,000). Potency, µM (top dose mostly 36.5 µM), inactives show at the top dose activity change, negative = inhibition, hits mostly inhibitors; active means well fitted inhibition curve with a large enough effect; inconclusive means small, poorly fitted or top-dose-only effect; inactive means no such curve, though single readings can be large or run the other way; tested in A549 cells; also: nearly all actives have a fitted effect of over 30% in size; inactives centre near -10
# VACV mCherry inh = vaccinia inhibition (mCherry reporter) | Vaccinia virus mCherry reporter infection, fluorescence; about a quarter of the inactives have no number | Potency, µM (highest dose often 36.5 µM), without a hit: at the highest dose activity change, negative = inhibition, usual class: inhibitors | actives 0.63% (n = 310,000) | AID 720579; active = well fitted inhibition curve with a large enough effect; inconclusive = small, poorly fitted or top-dose-only effect; inactive = no such curve, though single readings can be large or run the other way; tested in A549 cells; also: nearly all actives have a fitted effect of over 35% in size; inactives centre near -10
# The depositor's hits bear a star; i = inactive; ? = inconclusive; . = not tested or not shown; [ ] = another dose, or the depositor's remark. % is scaled to controls: 0 for no effect and ±100 for the full control effect; potency is read from the fitted curve at half-maximal effect. Outcome played no part in choosing rows. Share with any hit: about 0.88%.
SMILES,VACV Venus inh,VACV mCherry inh
CC(=O)Nc1ccc(NC(=O)c2csc([C@H]3C[C@H](O)[C@@H](CO)O3)n2)cc1,2%,-10%
CCC(C)(C)NC(=O)CN(C(=O)CCC(=O)Nc1nccs1)c1ccccc1C,-14%,i
COc1ccc(CCNc2nc(C)nc3c2oc2ccccc23)cc1OC,?,.
CCCn1cc(CN2CCCC(CNC(=O)c3ccc(F)cc3)C2)c(C)n1 (stereo not drawn),-21%,-3%
CCN(CC)c1ccc(C2NC(=O)c3ccccc3N2)cc1 (stereo not drawn),?,-19%
O=C(/C=C/c1ccccc1)NC(=S)Nc1ccc(CN2CCOCC2)cc1,-4%,?
CCc1c(C)nc(Nc2nc(C)c3ccc(OC)cc3n2)[nH]c1=O,?,?
CC(=O)N1CCN(CC(=O)Nc2cc(F)ccc2C)CC1,-12%,i
CC(=O)c1ccc(N2C(=O)N(Cc3ccccc3C#N)c3ccccc3S2(=O)=O)cc1,-10%,-6%
COc1cc(Cl)ccc1OCc1cc(C(=O)N(C)C2CC(C)(C)NC(C)(C)C2)no1,-19%,i
Clc1ccccc1CO/N=C1\CCCc2nonc21,-11%,i
CC(C)CNC(=O)C(=O)NCCCN1CCOCC1,-6%,i
Cc1ccccc1-c1nn(-c2ccc(F)cc2F)cc1CNCCN(C)C,-3%,-9%
CCOc1cc(C(=O)Nc2ccc(NC(C)=O)cc2)ccc1OCC(=O)N1CCCCC1,-15%,-14%
COc1cc(=O)n2c(c1C(=O)NCc1ccco1)CCN(Cc1ccc3ccccc3c1)CC2,-12%,i
c1csc(-c2nn3cnnc3c3ccccc23)c1,-7%,i
CN(C)N1C(N)=C(C#N)C(c2ccc(Cl)cc2)C2=C1CCCC2=O (stereo not drawn),-9%,-18%
CC(=C1C(=O)c2ccccc2C1=O)N1CCN(CCN=CC2=C(O)CC(C)(C)CC2=O)CC1,-3%,-16%
CN1C=C(C(F)(F)F)C=C/C1=C(\C#N)c1nnc2n1CCCCC2,-7%,i
C=C1C=C(C(F)F)n2ncc(C(=O)N3CCN(c4ccccn4)CC3)c2N1,-16%,4%
CC1(C(=O)NCc2ccccc2)CN(S(C)(=O)=O)CC(=O)N1Cc1cccc(C(F)(F)F)c1 (stereo not drawn),-8%,-4%
O=C(CCCc1nc(-c2ccccc2)no1)NC1CCCC1,-4%,-13%
CCCCn1c(SC(C)C(=O)NCC2CCCO2)nc2cc(C(=O)OC)ccc2c1=O (stereo not drawn),-19%,i
Cc1ccc(NS(=O)(=O)c2cccc(C(=O)NCC3CCCO3)c2)cc1 (stereo not drawn),-14%,-23%

# A different layout for some results above:
# Results follow in this order: VACV Venus inh, VACV mCherry inh
> CCN(CC)c1ccc(C2NC(=O)c3ccccc3N2)cc1 (stereo not drawn)
 : ?, -19%
> O=C(/C=C/c1ccccc1)NC(=S)Nc1ccc(CN2CCOCC2)cc1
 : -4%, ?

# Carrying on.
SMILES,VACV Venus inh,VACV mCherry inh
O=C1NC[C@@H](CCCCN2CCN(CCC3CCCCC3)C(=O)C2=O)N(Cc2ccccc2)C1=O,-14%,-5%
Cc1[nH]nc2c1C(c1ccc(OC(=O)c3ccco3)cc1)C(C#N)=C(N)O2 (stereo not drawn),-2%,.
CC(=O)c1ccc(NC(=O)Cn2c(-n3nc(C)cc3C)nc(C)c(C)c2=O)cc1,-12%[7.34 µM],-11%[7.34 µM]
COc1ccc(-n2c(C)cc(/C=C3\SC(=S)NC3=O)c2C)cc1,-10%,?
CCc1cccc(C)c1NC(=O)CSc1nc2ccc(N3C(=O)c4ccccc4C3=O)cc2s1,16%,i
CCOc1ccc(CCN2C(=O)C(=O)N([C@@H](Cc3ccc(O)cc3)CN3CCC[C@H]3CN3C(=O)C(=O)NC[C@@H]3Cc3ccccc3)C[C@@H]2Cc2ccc(O)cc2)cc1,-3%,-6%
C=CCOc1c2ccc(C(=O)NCc3ccc(C)cc3)cc2nn1C,-1%,i
Cc1cc(C)cc(NC(=O)Cn2nnc(-c3nc(-c4ccncc4)no3)c2N)c1,7%,0%
CCOC(=O)c1c(C(C)(C)C)oc2ccc(OCC#N)cc12,-15%,.
CCCCNC(=S)N(C)/N=C/c1c(F)c(F)c(F)c(F)c1F,-14%,i
COc1cccc2cc(C(=O)N3CCN(c4cc(C)ccc4C)CC3)c(=O)oc12,7%,-5%
CCn1cc(CCC(=O)NCc2cccc(OC)c2OC)c2ccccc21,-6%,-11%

# Whole records as entered above.
# Results for COc1ccc(-n2c(C)cc(/C=C3\SC(=S)NC3=O)c2C)cc1 = VACV Venus inh = -10%; VACV mCherry inh = ?
# Results for Cc1[nH]nc2c1C(c1ccc(OC(=O)c3ccco3)cc1)C(C#N)=C(N)O2 (stereo not drawn) = VACV Venus inh = -2%; VACV mCherry inh = .
# Results for CC(=O)c1ccc(NC(=O)Cn2c(-n3nc(C)cc3C)nc(C)c(C)c2=O)cc1 = VACV Venus inh = -12%[7.34 µM]; VACV mCherry inh = -11%[7.34 µM]

# Reprinted at random: 3 records from the list
SMILES,VACV Venus inh,VACV mCherry inh
Cc1[nH]nc2c1C(c1ccc(OC(=O)c3ccco3)cc1)C(C#N)=C(N)O2 (stereo not drawn),-2%,.
COc1cccc2cc(C(=O)N3CCN(c4cc(C)ccc4C)CC3)c(=O)oc12,7%,-5%
C=CCOc1c2ccc(C(=O)NCc3ccc(C)cc3)cc2nn1C,-1%,i

# The results go on.
SMILES,VACV Venus inh,VACV mCherry inh
COC(C[C@@H](O)CC(=O)[C@H](C)OCc1ccccc1)OC,-7%,i
O=C(COC(=O)Cc1cccc(C(F)(F)F)c1)NC(=O)NC1CCCC1,-14%,i
O=C(COc1ccc(Br)cc1)NNC(=S)NCc1ccccc1,-6%,-11%
N#CC(=C(O)COC(=O)Cc1c[nH]c2ccccc12)c1nc2ccccc2[nH]1,13%,4%
O=C(C/C(=N\NC(=O)c1ccccc1Br)C(F)(F)F)c1cccs1,-5%,-23%
CC(C)=NNc1ncnc2nc[nH]c12,-24%,-9%
O=C(NCCc1ccccc1)Nc1ccc(Cl)cc1,-15%,-19%
COc1c(F)c(F)c(C(=O)Nc2ccc(NC(=O)c3ccco3)cc2)c(F)c1F,-27%,.
COc1ccc(C(=O)NC2CCSc3ccccc32)cc1S(=O)(=O)N1CCOCC1 (stereo not drawn),-9%,i
CC1(C)CC(NC(=O)c2cc(Cl)ccc2Cl)CC(C)(C)N1,-6%,-7%
COc1ccc(C(=O)NC(=O)COC(=O)C2CC2C)cc1 (stereo not drawn),-10%,-14%
Cc1cccc(N2CCN(S(=O)(=O)c3ccc(-c4cc(C)no4)s3)CC2C)c1 (stereo not drawn),-11%,i

# Compounds from the list above that contain an aryl thioether with sulfur outside any ring:
SMILES,VACV Venus inh,VACV mCherry inh
CCCCn1c(SC(C)C(=O)NCC2CCCO2)nc2cc(C(=O)OC)ccc2c1=O (stereo not drawn),-19%,i
CCc1cccc(C)c1NC(=O)CSc1nc2ccc(N3C(=O)c4ccccc4C3=O)cc2s1,16%,i

# (more compounds)
SMILES,VACV Venus inh,VACV mCherry inh
O=C(C1CC1)N1CCc2cc(Br)cc(S(=O)(=O)Nc3ccc(F)c(F)c3)c21,-12%,-14%
CCc1nc2c(OCc3cccc(Cl)c3)cccn2c1N(C)C(=O)c1ccc(OC)cc1,2%,-7%
Cc1ccc(COc2ccc(/C=N/NC(=O)CN3CCCCC3)cc2)cc1,-2%,-8%
C=CCOc1cccc(C2c3c(oc4ccc(F)cc4c3=O)C(=O)N2CCCN2CCOCC2)c1 (stereo not drawn),-7%,-12%
O=C(Nc1ccccc1)N1CCN(C(=O)c2nsc3ccccc23)CC1,0%,-8%
Cc1cc(C(=O)OCC(=O)N2CCC(c3ccccc3)=N2)ccc1[N+](=O)[O-],-10%,-11%
O=C(N[C@H](CO)Cc1ccccc1)c1ccco1,-14%,i
CC(C)N1CCc2c(sc(NC(=O)CN3C(=O)c4ccccc4C3=O)c2C(N)=O)C1,-6%,-28%
Cc1ccc(OCC(=O)Nc2ccc3nc(Nc4cccc(Cl)c4)cc(C)c3c2)cc1,11%,3%
COc1cccc(-c2nn3c(=O)cc(CN4CCN(S(=O)(=O)c5ccc(C)cc5)CC4)nc3s2)c1,-6%,-2%
COc1ccc([N+](=O)[O-])cc1N(CC(=O)NCCSc1ccccc1)S(C)(=O)=O,0%,2%
Cc1ccccc1NC(=S)N(Cc1ccco1)C(C)c1ccccn1 (stereo not drawn),-13%,-15%
COCCNS(=O)(=O)c1cc(OC)ccc1OC,10%,-2%
CCC12CN3CC(CC)(CN(C1)C3c1c[nH]c3ccccc13)C2=O (stereo not drawn),-28%,-12%
CCCCCCn1c(=O)n2n(c1=O)[C@@H]1CN(S(=O)(=O)c3ccc(C)cc3)C[C@]1(O)[C@@H](OC(=O)NCc1ccccc1)C2,?,-21%
COCCNc1nc(Nc2ccc(C(=O)OC)cc2)c2sccc2n1,-26%,i
COC(=O)C(C)n1nnc2sc(-c3ccccc3)cc2c1=O (stereo not drawn),4%,5%
COc1ccc(-c2noc(CN(C)C(=O)c3ccoc3C)n2)cc1,10%,-13%
Cc1cc(NC(=O)CCC(=O)N(c2ccccc2)C2(C(=O)NC3CCCCC3)CCCC2)no1,?,-16%
COc1ccc(Cl)cc1NC(=O)c1c(NCc2ccc(C)o2)sc2c1CCCCC2,-2%,-16%
CCOC(=O)Cc1cnc(NC(=O)c2ccccc2)s1,-9%,-7%
Cc1ccc(S(=O)(=O)Nc2cccc(C(=O)NCC3(N4CCCCC4)CCCCC3)c2)cc1F,-12%,-24%
CC(C)CCNC(=O)c1ccc2c(c1)nc1n2CCCCC1,-8%,-16%
COCC(C)NC(=O)c1cc2cccc([N+](=O)[O-])c2[nH]1 (stereo not drawn),-10%,-21%
CCC(C)(C)NC(=O)C(c1ccncc1)N(Cc1cccs1)C(=O)Cn1nnc2ccccc21 (stereo not drawn),-21%,.
CC(C)C(=O)N1CCN(c2ccccc2NC(=O)COc2ccc(C3CCCCC3)cc2)CC1,?,-17%
Cc1ccc(S(=O)(=O)N2CC(C)N(S(C)(=O)=O)C2)cc1 (stereo not drawn),-3%,1%
O=C(NC1CCCCC1)c1cc(Cl)ccc1[N+](=O)[O-],-8%,-23%
c1ccc2c(CN3CCCCC3)csc2c1,-8%,-1%
CCOC(=O)C1CCN(c2ncnc3c2c(-c2ccccc2)cn3-c2ccc(Cl)cc2)CC1,-2%,-13%
COc1ccc(NC(=O)C(c2ccccc2F)n2c(=O)c(-c3ccco3)nc3ccccc32)cc1 (stereo not drawn),-6%,2%
Cc1ccc(CNc2ncnc3cc(Cl)ccc23)o1,-33%,.
Cn1c(=O)c2cc(NC(=O)CCc3cccnc3)ccc2n1Cc1ccc(F)cc1,-12%,-19%
Cc1ccc(CNC(=O)c2nc3nc(C)cc(C)n3n2)cc1,-3%,.
COc1ccc(C)cc1NC(=O)CCCN1C(=O)C2CC=CCC2C1=O (stereo not drawn),-5%,i
O=S(=O)(c1ccccc1F)N1CCc2ccccc2C1,7%,-9%
CN(C)C(=S)Oc1ccccc1C1(C)OCCO1,-5%,i
Cc1cc(C)cc(NC(=O)c2cnn(-c3ccccc3)c2C2CCNCC2)c1,-19%,-13%
O=C(Nc1nnc(-c2ccco2)o1)c1ccc(N2C(=O)CCC2=O)cc1,0%,-3%
CC(C)n1nc(C(=O)Nc2ccccc2N2CCOCC2)c2ccccc2c1=O,-7%,-3%
Cc1cccc(CNC(=O)c2sc(=O)n(Cc3c(C)cccc3C)c2C)c1,-5%,-1%
CN(C)CC1CCCCC1OC(=O)c1ccc(Cl)cc1 (stereo not drawn),-9%,-22%
CCNc1nc(Cl)nc(N(NC(C)=O)C(C)C)n1,-5%,i
CCc1nc2cc(C(=O)NC3CCOC(C)(C)C3)cc(NC(=O)c3ccccc3OC)c2n1C (stereo not drawn),-11%,-24%
Cn1cc(-c2cc3n(n2)CCC(=O)N3CCCC(=O)Nc2ccc(Cl)cc2)c2ccccc21,-20%,-7%
Cc1ccccc1C(=O)Nc1nnc(-c2ccco2)s1,4%,i
O=C(OCc1nnc(-c2ccccc2)o1)c1cc(=O)[nH]c2ccccc12,-1%,-18%
CSc1nc(C(=O)N2CCCC(N3CCN(c4ccccc4C)CC3)C2)cs1 (stereo not drawn),-19%,-27%
COc1ccc(/C=C/C(=O)CC(O)(c2ccccc2)C(F)(F)F)cc1 (stereo not drawn),-29%,-26%
COCC(=O)Nc1cc(C(=O)NC2Cc3ccccc3C2)cc2nc(-c3cccnc3)n(C)c12,7%,-13%
O=C(NCc1cccs1)c1ccc(Cn2c(SCc3cccc(F)c3)nc3cccnc32)cc1,-21%,-21%
Cc1cc(Cl)c(O)c(-n2nc3ccccc3n2)c1,-11%,-10%
COC(=O)c1cc(NC(=O)C(C)c2ccc(CC(C)C)cc2)ccc1O (stereo not drawn),-8%,?
CC1=CCc2c(cc3oc(C)cc(=O)c3c2O)OC1,?,i
Cc1ccc(C)c(Nc2ncnc3c2cnn3-c2ccc(F)cc2)c1,1%,-12%
O=C(Nc1ccc(Br)cc1)Nc1nc2c(s1)CCCCCC2,-6%,-14%
Cc1nc2ccccc2n1C1CC(=O)N(N(C)C)C1=O (stereo not drawn),-2%,-6%
CCOC(=O)C1CCN(C(c2cccc(F)c2)c2sc3nc(C)nn3c2O)CC1 (stereo not drawn),-14%,-8%
COc1cc(CCC(=O)Nc2nnc(C)s2)cc(OC)c1OC,-11%,-3%
CC(=O)N1CCOc2ccc(S(=O)(=O)N3CCC(C(=O)Nc4ccc(C)c(C)c4)CC3)cc21,-16%,i
C=CC[C@H](CC(=O)NCCO)C(=O)N[C@@H](C)COC(=O)[C@@H](CC=C)CC(=O)OC(C)(C)C,-7%,i
Cc1cc(C)n2nc(-c3ccc(F)cc3)cc2n1,-9%,-15%
